Screening results from PubChem.
MITF inhib = MITF inhibition. TRPM1 promoter luciferase, luminescence, 24 h. inhibition, % (test concentration not listed). 37,000 compounds, 0.28% hits. AID 2240;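 active means most replicates at 85% or more, or half of them and the mean; inconclusive means half reach 85% but not the mean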;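 further: human melanocyte line stably carrying TRPM1 promoter luciferase reporter; 0% = vehicle wells and 100% = a positive control; the first replicate is given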
Shh pathway inh = blocks Sonic Hedgehog signaling; Shh-LIGHT2 Gli-luciferase reporter, 30 h; inhibition, % (test concentration not listed); 22,000 compounds, 2.1% hits;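 active means replicate mean of 65% or more; inconclusive means mean lower but half the replicates past it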;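 further: pathway switched on by Shh-conditioned medium diluted 1 in 25 in low serum; 100 nL library stock added to about 40 µL; 0% = median of neutral wells and 100% = positive control level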
PD-1 reversal = activators reversing PD-1 mediated T-cell inhibition; primary human CD4 T cells, PD-L1 beads, CellTiter-Glo 96 h; activation, % (no concentration beside the values); 29,000 tested, under 10 active;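 active means replicate mean of 50% or more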;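 further: 0% = median vehicle wells and 100% = positive control; 100 nL library stock added to about 50 µL; numbers are from one replicate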
YB-1 expression = YB-1 expression inhibition. 30,000 compounds, 0.37% hits. U2OS, qRT-PCR YB-1 vs CDIP delta delta Cp, 16 h; active compounds read high; zero = DMSO, each unit about twofold. delta delta Cp (YB-1 minus CDIP) (test concentration not listed). AID 434959;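 active means delta delta Cp rounded down to an integer at or above 3, about 3 SD of DMSO wells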;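 further: higher means less YB-1 transcript or more CDIP transcript relative to DMSO; stock transfer was 100 nL into about 100 µL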
* hit, by the source's call; & = joins results of further samples. Only part of the results is shown (hit frequency here may not be typical).

The opening two entries, ahead of the listing:
Screening C[C@H](CO)N1C[C@H](C)[C@H](CN(C)S(=O)(=O)c2ccc(F)cc2)Oc2ccc(NS(=O)(=O)c3ccc(Cl)cc3)cc2CC1=O returned MITF inhib 2, Shh pathway inh 22, PD-1 reversal 1.8 and YB-1 expression -0.19.
Screening CC(C)(C)NC(=O)[C@H]1C[C@H]2CCCC[C@H]2CN1C(=O)C12CC3CC(CC(C3)C1)C2 returned MITF inhib -14, Shh pathway inh -17, PD-1 reversal 5.8 and YB-1 expression -0.55.

All compounds of this part, previewed entries included:
Screening C[C@H](CO)N1C[C@H](C)[C@H](CN(C)S(=O)(=O)c2ccc(F)cc2)Oc2ccc(NS(=O)(=O)c3ccc(Cl)cc3)cc2CC1=O returned MITF inhib 2, Shh pathway inh 22, PD-1 reversal 1.8 and YB-1 expression -0.19.
Screening CC(C)(C)NC(=O)[C@H]1C[C@H]2CCCC[C@H]2CN1C(=O)C12CC3CC(CC(C3)C1)C2 returned MITF inhib -14, Shh pathway inh -17, PD-1 reversal 5.8 and YB-1 expression -0.55.
For OCC(Cc1ccc2c(c1)OCO2)C(CO)Cc1ccc2c(c1)OCO2 (configuration not stated) the results were Shh pathway inh 1 and YB-1 expression 0.42.
For Cc1cccc(NC(=O)CSc2cn(CCNC(=O)c3ccc(F)cc3)c3ccccc23)c1C the results were MITF inhib -32, Shh pathway inh -77, PD-1 reversal 4.1 and YB-1 expression -0.7.
`CNCCc1ccccn1` gave MITF inhib 7&-16, Shh pathway inh 0&-1, PD-1 reversal 4.1 and YB-1 expression -0.018&0.82.
For COc1ccc(NC(=O)Nc2nn(Cc3c(F)cccc3Cl)cc2Br)c(OC)c1 the results were MITF inhib 3 and PD-1 reversal 1.3.
`C[C@@H]1CN([C@H](C)CO)C(=O)c2cccc(NC(=O)c3nc4ccccc4s3)c2O[C@H]1CN(C)C(=O)Nc1ccc2c(c1)OCO2` gave MITF inhib 1, Shh pathway inh 11, PD-1 reversal -0.8 and YB-1 expression -0.37.
Screening C[C@@H]1CCCCO[C@H](CN(C)C(=O)CCCN(C)C)[C@@H](C)CN([C@H](C)CO)C(=O)c2cc(NC(=O)Nc3cccc4ccccc34)ccc2O1 returned MITF inhib -1, Shh pathway inh -8, PD-1 reversal 0.1 and YB-1 expression 0.0075.
`COc1cc([N+](=O)[O-])ccc1NC(=S)NCc1cc(C)n(C)n1` gave MITF inhib -13 and PD-1 reversal -1.3.
For C[C@@H]1CCCCO[C@H](CN(C)C(=O)Nc2ccc3c(c2)OCO3)[C@@H](C)CN([C@H](C)CO)C(=O)c2cc(NS(=O)(=O)c3ccc(Cl)cc3)ccc2O1 the results were MITF inhib 11, Shh pathway inh inconclusive and YB-1 expression 0.035.
O=C(CC(=O)c1ccc(O)cc1)OC[C@H]1O[C@@H](Oc2ccc(O)cc2)[C@H](OC(=O)c2ccc(O)cc2)[C@@H](O)[C@@H]1O was read as Shh pathway inh -8 and YB-1 expression 2.
`C[C@@H]1CN([C@@H](C)CO)C(=O)c2cc(NC(=O)Cc3cn(C)c4ccccc34)ccc2O[C@H]1CN(C)Cc1ccncc1` gave MITF inhib 17, Shh pathway inh -5, PD-1 reversal -3.1 and YB-1 expression -0.45.
COc1ccc(NC(=O)Nc2cccc3c2O[C@@H](CN(C)S(=O)(=O)c2ccccc2)[C@@H](C)CN([C@H](C)CO)C3=O)cc1 was read as MITF inhib -15, Shh pathway inh -13, PD-1 reversal -1.0 and YB-1 expression 0.11.
For C[C@@H]1CN([C@H](C)CO)C(=O)c2cc(NC(=O)Cc3cn(C)c4ccccc34)ccc2O[C@@H]1CN(C)C(=O)Nc1ccc2c(c1)OCO2 the results were MITF inhib 0, Shh pathway inh -9, PD-1 reversal -0.6 and YB-1 expression 0.21.
`CN1C(=O)C(Cc2ccccc2)(Cc2ccccc2)c2ccccc21` gave MITF inhib 9, Shh pathway inh -32, PD-1 reversal -1.5 and YB-1 expression -0.31.
For COc1ccc(CN(C)C[C@H]2Oc3c(NC(=O)Nc4ccc5c(c4)OCO5)cccc3C(=O)N([C@H](C)CO)C[C@@H]2C)cc1 the results were MITF inhib -14, Shh pathway inh -22 and YB-1 expression 0.0047.
`CCOc1ccc2nc(Nc3nc(C)c(CCC(C)C)c(=O)[nH]3)nc(C)c2c1` gave MITF inhib 39 and PD-1 reversal -5.5.
For Cc1sc2ncn(CC(=O)Nc3c(C(C)C)cccc3C(C)C)c(=O)c2c1C the results were MITF inhib 36 and PD-1 reversal -3.7.
Screening Cc1ccc(S(=O)(=O)Nc2cccc3c2O[C@@H](CN(C)S(=O)(=O)c2ccc(Cl)cc2)[C@H](C)CN([C@H](C)CO)C3=O)cc1 returned MITF inhib -13, Shh pathway inh 8, PD-1 reversal 0.8 and YB-1 expression -0.3.
Screening CCOc1c(S(=O)(=O)NCc2cccnc2)ccc(Cl)c1Cl returned MITF inhib 3 and PD-1 reversal 0.4.
C[C@@H]1CN([C@@H](C)CO)C(=O)c2cccc(NS(=O)(=O)c3cccs3)c2O[C@@H]1CN(C)Cc1ccc(Oc2ccccc2)cc1 was read as MITF inhib 6, Shh pathway inh -43, PD-1 reversal -0.7 and YB-1 expression -0.17.
CS(=O)(=N/C=C(\C#N)S(=O)(=O)c1ccc(C(F)(F)F)cn1)c1ccc(Cl)cc1 (configuration not stated) was read as MITF inhib 10, Shh pathway inh -26, PD-1 reversal 0.4 and YB-1 expression 0.092.
`CC(=O)OCC/C(=C\CC1(O)C(C)CCC2C(C)(C)CCCC21C)COC(C)=O` (configuration not stated) gave MITF inhib -11, Shh pathway inh -7, PD-1 reversal -0.1 and YB-1 expression -0.18.
C[C@@H]1CN([C@H](C)CO)C(=O)Cc2cc(NC(=O)C3CCCCC3)ccc2O[C@H]1CN(C)Cc1ccncc1 was read as MITF inhib -3, Shh pathway inh -14, PD-1 reversal 0.5 and YB-1 expression -8.7.
Screening COc1ccc(S(=O)(=O)Nc2ccc3c(c2)C(=O)N([C@@H](C)CO)C[C@H](C)[C@@H](CN(C)C(=O)NC(C)C)O3)cc1 returned MITF inhib 2, Shh pathway inh -13, PD-1 reversal 1.7 and YB-1 expression -0.31.
COc1ccc(S(=O)(=O)Nc2cccc3c2O[C@@H](CN(C)C(=O)Nc2ccc(F)cc2)[C@H](C)CN([C@@H](C)CO)C3=O)cc1 was read as MITF inhib 8, Shh pathway inh 8 and YB-1 expression -0.22.
Screening NCCCC[C@H](N[C@@H](CCc1ccccc1)C(=O)O)C(=O)N1CCC[C@H]1C(=O)O returned MITF inhib -2, Shh pathway inh -26 and YB-1 expression 0.19.
C[C@H](CO)N1C[C@H](C)[C@@H](CN(C)Cc2ccc3c(c2)OCO3)Oc2c(NS(C)(=O)=O)cccc2C1=O was read as MITF inhib -14, Shh pathway inh -30 and YB-1 expression -0.24.
Screening C[C@H](CO)N1C[C@H](C)[C@@H](CN(C)Cc2ccc(-c3ccccc3)cc2)Oc2c(NS(=O)(=O)c3ccc(Cl)cc3)cccc2C1=O returned MITF inhib 9, Shh pathway inh -13, PD-1 reversal 0.5 and YB-1 expression -0.079.
`CC(C)NC(=O)Nc1ccc2c(c1)C(=O)N([C@@H](C)CO)C[C@@H](C)[C@@H](CN(C)Cc1ccc(C(=O)O)cc1)O2` gave MITF inhib -8, PD-1 reversal 1.5 and YB-1 expression -1.5.
`C[C@H](CO)N1C[C@H](C)[C@H](CN(C)S(=O)(=O)c2ccccc2)Oc2ccc(NS(=O)(=O)c3cccs3)cc2CC1=O` gave MITF inhib -3, Shh pathway inh -20, PD-1 reversal 0.3 and YB-1 expression -0.3.
`COc1ccc(S(=O)(=O)Nc2ccc3c(c2)C(=O)N([C@@H](C)CO)C[C@H](C)[C@@H](CN(C)C(=O)NC2CCCCC2)O3)cc1` gave MITF inhib -5, PD-1 reversal -1.2 and YB-1 expression -0.43.
Nc1ccccc1Nc1c(N)c(=O)oc2ccccc12 was read as MITF inhib 10, Shh pathway inh -94, PD-1 reversal -0.9 and YB-1 expression 0.26.
Cn1cnnc1Sc1cc(C#N)c(C#N)cc1Sc1nncn1C was read as MITF inhib -4, Shh pathway inh -65, PD-1 reversal 4.7 and YB-1 expression -0.094.
Screening Cc1ccc(S(=O)(=O)N(C)C[C@H]2Oc3c(NS(=O)(=O)c4ccc(Cl)cc4)cccc3C(=O)N([C@H](C)CO)C[C@@H]2C)cc1 returned MITF inhib 0, Shh pathway inh -17, PD-1 reversal 1.8 and YB-1 expression -0.051.
Screening C[C@@H]1CCCCO[C@@H](CN(C)C(=O)Cc2ccccc2)[C@@H](C)CN([C@H](C)CO)C(=O)c2cc(NS(=O)(=O)c3ccc(F)cc3)ccc2O1 returned MITF inhib 3, Shh pathway inh -4, PD-1 reversal -3.9 and YB-1 expression -0.21.
For C[C@@H]1CN([C@H](C)CO)C(=O)c2cccc(NC(=O)Nc3cccc4ccccc34)c2O[C@@H]1CN(C)C(=O)Nc1ccccc1 the results were MITF inhib 6, Shh pathway inh 41, PD-1 reversal -0.7 and YB-1 expression -0.43.
C[C@H](CO)N1C[C@H](C)[C@@H](CN(C)Cc2ccncc2)Oc2c(NS(=O)(=O)c3ccccc3)cccc2C1=O was read as MITF inhib -2, Shh pathway inh 11, PD-1 reversal -1.2 and YB-1 expression 0.11.
Cc1cc(C)c(NC(=O)CSc2nc(-c3ccccc3)c(-c3ccccc3)[nH]2)c(C)c1 was read as MITF inhib 92* and PD-1 reversal -5.7.
For CC(C)(C)C1CCc2c(sc(NC(=S)NC(=O)c3cc4ccccc4o3)c2C(N)=O)C1 (configuration not stated) the results were MITF inhib -4 and PD-1 reversal 0.2.
Screening C[C@@H]1CN([C@H](C)CO)C(=O)c2cc(NC(=O)Nc3ccc4c(c3)OCO4)ccc2O[C@H]1CN(C)S(=O)(=O)c1ccc(Cl)cc1 returned MITF inhib -22, Shh pathway inh 18, PD-1 reversal 0.1 and YB-1 expression 0.2.
`COc1cc(C2C3=C(CC(C)(C)CC3=O)Nc3ncnn32)ccc1OCC(=O)N1CCOCC1` (configuration not stated) gave MITF inhib -11 and PD-1 reversal 2.8.
For COc1ccc(NC(=O)N(C)C[C@@H]2Oc3ccc(NS(=O)(=O)c4ccc(OC)cc4)cc3C(=O)N([C@@H](C)CO)C[C@@H]2C)cc1 the results were MITF inhib 4, Shh pathway inh 3, PD-1 reversal -0.6 and YB-1 expression -0.1.
CC(=O)Nc1ccc(NC(=O)CN2C(=O)COc3ccc(Cl)cc32)cc1 was read as MITF inhib -6 and PD-1 reversal -0.6.
For Cc1cc(C(F)(F)F)c(C#N)c(SCC(=O)Nc2ccc(Cl)cc2)n1 the results were MITF inhib -39 and PD-1 reversal 0.7.
`COc1ccc(S(=O)(=O)N2CCN(c3ccccn3)CC2)cc1N(C)S(=O)(=O)c1ccccc1` gave MITF inhib 1 and PD-1 reversal 1.6.
For C[C@H]1CN([C@@H](C)CO)C(=O)c2cccc(NC(=O)NC3CCCCC3)c2O[C@@H]1CN(C)CC1CCCCC1 the results were MITF inhib 23, Shh pathway inh -8 and YB-1 expression -0.11.
Cc1noc(C)c1S(=O)(=O)N(C)C[C@@H]1Oc2ccc(NS(=O)(=O)c3ccccc3)cc2CC(=O)N([C@H](C)CO)C[C@@H]1C was read as MITF inhib -2, Shh pathway inh -3 and YB-1 expression 0.024.
Cc1ccc(S(=O)(=O)Nc2ccc3c(c2)C(=O)N([C@H](C)CO)C[C@@H](C)[C@@H](CN(C)Cc2ccc(C(=O)Nc4ccccc4N)cc2)O3)cc1 was read as MITF inhib 25, PD-1 reversal -1.1 and YB-1 expression -0.12.
CC(C)NC(=O)N(C)C[C@@H]1Oc2ccc(NC(=O)Cc3cn(C)c4ccccc34)cc2CC(=O)N([C@H](C)CO)C[C@H]1C was read as MITF inhib 6, Shh pathway inh -14 and YB-1 expression -0.15.
`COc1ccc(NC(=O)Nc2ccc3c(c2)C(=O)N([C@@H](C)CO)C[C@@H](C)[C@@H](CN(C)Cc2ccc(C(F)(F)F)cc2)O3)cc1` gave MITF inhib 34, PD-1 reversal 0.0 and YB-1 expression 0.046.
Screening O=c1cc(-c2ccccc2)ss1 returned MITF inhib -1, PD-1 reversal 0.8 and YB-1 expression 0.41.
`Cc1ccc(-n2c(SCC(=O)c3ccc(Cl)cc3)nnc2-c2ccco2)cc1` gave MITF inhib 0 and PD-1 reversal -2.1.
Screening Cc1noc(C)c1NC(=O)N(C)C[C@@H]1Oc2c(NC(=O)C3CCCCC3)cccc2C(=O)N([C@@H](C)CO)C[C@H]1C returned MITF inhib -3, Shh pathway inh -8, PD-1 reversal 0.9 and YB-1 expression -0.27.
For Cc1ccc(Cl)cc1NC(=O)CN(c1ccc(Cl)cc1)S(C)(=O)=O the results were MITF inhib 16 and PD-1 reversal -2.5.

4 neighbouring entries already listed, quoted:
Screening O=c1cc(-c2ccccc2)ss1 returned MITF inhib -1, PD-1 reversal 0.8 and YB-1 expression 0.41.
`Cc1ccc(-n2c(SCC(=O)c3ccc(Cl)cc3)nnc2-c2ccco2)cc1` gave MITF inhib 0 and PD-1 reversal -2.1.
Screening Cc1noc(C)c1NC(=O)N(C)C[C@@H]1Oc2c(NC(=O)C3CCCCC3)cccc2C(=O)N([C@@H](C)CO)C[C@H]1C returned MITF inhib -3, Shh pathway inh -8, PD-1 reversal 0.9 and YB-1 expression -0.27.
For Cc1ccc(Cl)cc1NC(=O)CN(c1ccc(Cl)cc1)S(C)(=O)=O the results were MITF inhib 16 and PD-1 reversal -2.5.
